D2 agonist = Beta-Arrestin HTS for Positive Allosteric Modulators of the Human D2 Dopamine Receptor: Agonists; D(2) dopamine receptor (Homo sapiens), P14416; DiscoveRx PathHunter D2 beta-arrestin, luminescence, 90 min; 100% = 57 uM dopamine signal; activation, % (test concentration not listed); hit rate 0.084% among 360,000; AID 624465, 2012; in the data active = activation above about 40%; inconclusive = about 15% to 40%; inactive = below about 15%; also: compound concentration not given in the record; the text of the record calls up to 30% inactive
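DiscoveRx PathHunter D2 beta-arrestin cells (2,100/well) attached overnight, then compound-stimulated 90 min at 37 C in HBSS/10 mM HEPES/0.1% Tween-20 buffer; beta-galactosidase complementation read by luminescence after 1 h at ambient temperature. Dopamine 57 uM final (EC100) as control.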
Six1-Eya2 inh = qHTS Assay for Inhibitors of the Six1/Eya2 Interaction. Homeobox protein SIX1 (Homo sapiens) + Protein phosphatase EYA2 (Homo sapiens), …. AlphaScreen GST-Six1/His-Eya2 binding, biochemical; active compounds read low; control for the full effect not named in the record. activity change, % (concentration not given with the values). hit rate 0.56% among 360,000; in the data active = activity change below about -65%; inconclusive = about -30% to -65%; inactive = above about -30%; also: % is scaled to controls: 0 for no effect and ±100 for the full control effect
Target sequence (O00167 whole entry, looked up): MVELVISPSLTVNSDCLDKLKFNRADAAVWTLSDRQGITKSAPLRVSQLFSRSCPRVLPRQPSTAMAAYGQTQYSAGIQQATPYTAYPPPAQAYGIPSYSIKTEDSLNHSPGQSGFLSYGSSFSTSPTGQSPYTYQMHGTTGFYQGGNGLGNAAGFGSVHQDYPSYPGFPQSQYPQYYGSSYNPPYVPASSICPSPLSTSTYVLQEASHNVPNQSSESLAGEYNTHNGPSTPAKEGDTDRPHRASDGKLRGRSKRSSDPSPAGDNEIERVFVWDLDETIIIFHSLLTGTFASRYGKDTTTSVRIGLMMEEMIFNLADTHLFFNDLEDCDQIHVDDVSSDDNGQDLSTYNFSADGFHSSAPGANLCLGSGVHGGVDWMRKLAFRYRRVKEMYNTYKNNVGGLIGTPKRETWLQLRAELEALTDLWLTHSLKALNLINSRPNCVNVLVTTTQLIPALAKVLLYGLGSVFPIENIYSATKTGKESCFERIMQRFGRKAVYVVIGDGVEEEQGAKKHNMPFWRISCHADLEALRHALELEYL
Target sequence (Q15475 whole entry, looked up): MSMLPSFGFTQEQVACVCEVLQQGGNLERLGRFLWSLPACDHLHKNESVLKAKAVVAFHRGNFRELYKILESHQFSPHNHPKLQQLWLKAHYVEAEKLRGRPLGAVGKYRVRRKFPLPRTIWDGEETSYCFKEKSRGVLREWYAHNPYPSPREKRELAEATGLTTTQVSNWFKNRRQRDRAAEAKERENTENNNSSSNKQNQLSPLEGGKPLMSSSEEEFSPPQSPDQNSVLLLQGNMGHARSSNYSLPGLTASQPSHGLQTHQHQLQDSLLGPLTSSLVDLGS
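AlphaScreen luminescence read after one hour at 37 °C in darkness. Pin-transferred compounds met GST-Six1 and His-Eya2 protein (5X stock 250 nM/500 nM) plus glutathione donor and Ni-chelate acceptor beads (5X, 50 ug/mL).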
D2 PAM = Beta-Arrestin HTS for Positive Allosteric Modulators of the Human D2 Dopamine Receptor: Potentiators; D(2) dopamine receptor (Homo sapiens), P14416; DiscoveRx D2 beta-arrestin cells, luminescence, 90 min; 100% = 57 uM dopamine signal; potentiation, % (concentration not given with the values); hit rate 0.23% among 360,000; active = potentiation of 50% or more; inconclusive = 30% to 50%; inactive = 30% or less;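 also: compound concentration not given in the record; tested on top of an EC20 dose of dopamine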
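D2 cells co-treated with compound plus 50 nM dopamine (EC20) for 90 min at 37 deg C to detect potentiation. Beta-arrestin recruitment was read as enzyme-fragment luminescence after 1 h at ambient temperature. Full response was set by 57 uM dopamine.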
gsp ag = qHTS for Agonist of gsp, the Etiologic Mutation Responsible for Fibrous Dysplasia/McCune-Albright Syndrome: qHTS | hit rate 0.13% among 340,000 | gsp mutant cells, cAMP HTRF, 30 min; control for the full effect not named in the record | Potency, µM (highest dose often 76.9 µM), without a hit: top-dose activation (cAMP increase), usual class: activators; active = well fitted activation curve with a large enough effect; inconclusive = small, poorly fitted or top-dose-only effect, or another doubt; inactive = no such curve, though single readings can be large or run the other way; cell line not stated here;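 also: phosphodiesterase inhibitor Ro 20-1724 added with compounds to block cAMP breakdown; potency is read from the fitted curve at half-maximal effect; nearly all actives have a fitted effect of over 60% in size; about a fifth of the inactives were tested at one dose only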
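Cells in DMEM/10% FBS with G418 were pretreated with compounds in DMSO plus […] (300 uM stock) for 30 min at 37C. cAMP was measured by HTRF (cAMP-d2 plus anti-cAMP antibody-K) after 30 min at room temperature.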
gsp antag = qHTS for Antagonists of gsp, the Etiologic Mutation Responsible for Fibrous Dysplasia/McCune-Albright Syndrome: qHTS; gsp-mutant cells, cAMP HTRF, 30 min; control for the full effect not named in the record; Potency, µM (highest dose often 76.9 µM), for the others: top-dose activity change, negative = inhibition, usual class: inhibitors; hit rate 0.4% among 340,000; active = falling curve of any shape with a large fitted effect; inconclusive = falling curve, mostly with a smaller effect; inactive = flat or rising curve; cell line not stated here;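 also: intracellular cAMP measured with PDE inhibitor Ro 20-1724 present during compound exposure; potency is read from the fitted curve at half-maximal effect; % is scaled to controls: 0 for no effect and ±100 for the full control effect; nearly all actives have a fitted effect of over 65% in size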
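HTRF cAMP measurement after 30 min RT detection following 30 min, 37C compound treatment alongside […] (added as 300 uM solution) in G418-selected cells seeded at 2000/well and grown 16–24 h.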
CtBP-E1A blk = qHTS Assay for Inhibitors of the CtBP/E1A Interaction. CtBP / adenovirus E1A interaction (AlphaScreen). activity change, % (concentration not given with the values). AlphaScreen GST-E1A/His-CtBP binding, 1536-well; active compounds read low; control for the full effect not named in the record. AID 651724, 2012. hit rate 0.49% among 340,000; in the data active means activity change below about -65%; inconclusive means about -30% to -65%; inactive means above about -30%; also: % is scaled to controls: 0 for no effect and ±100 for the full control effect
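AlphaScreen with 125 nM GST-E1A and 125 nM His-CtBP (5X stocks) in Tris pH 8.0, 300 mM NaCl, BSA, Tween 20, TCEP. Compounds preincubated 2 h at 37 deg C, then glutathione donor/nickel acceptor beads added for 1 h at 37 deg C in dark.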
* marks the source's active call; other numbers are inactive results; ? = inconclusive; · = no result given; [ ] = remark or other dose.

SMILES	D2 agonist	Six1-Eya2 inh	D2 PAM	gsp ag	gsp antag	CtBP-E1A blk
COc1ccc([C@H]2CC(=O)C=C(c3cc(Br)ccc3OC)C2)cc1	-1.7	-1	-10	9%	-7%	0
CCCCc1cc(=O)oc2cc(OCC(=O)Nc3cccnc3)c(Cl)cc12	0.9	3	-3	4%	-2%	·
Cc1nn(C)cc1NC(=O)Cn1nc(C(F)(F)F)cc1C1CC1	-2.3	7	-7	-4%	7%	4
COc1cc(NC(=O)CSc2nnc(C)s2)cc(OC)c1OC	-0.4	5	1	0%	6%	0
COc1ccccc1NC(=O)Nc1nn(C)c2cccc(N(C)C)c12	-1.7	-28	15	-4%[15.4 µM]	-21%	0
Cc1ccc(C(=O)OCC(=O)c2ccc(CC(=O)N3CCOCC3)s2)c(C)c1	2.3	-18	-5	-3%[15.4 µM]	3%	2
CC(=O)c1ccc(OCCCC(=O)Nc2cccc(-c3nn[nH]n3)c2)cc1	-7.6	-7	-3	2%[15.4 µM]	5%	-8
COc1ccccc1NC(=O)Cn1nnc(-c2ccccc2NC(=O)c2cc3ccccc3oc2=O)n1	0.6	20	2	?	-13%	50
Cc1ccc(C)c(S(=O)(=O)N2CCN(C(=O)CN3C(=O)NC(C)(C)C3=O)CC2)c1	0.2	-1	1	-10%	4%	7
COc1ccccc1C(=O)COC(=O)CNS(=O)(=O)c1ccc(NC(C)=O)cc1	-3.3	21	-5	-47%[inhibitor]	1%	-5
O=C(CNS(=O)(=O)c1ccc(F)c(Cl)c1)N1CCCC1	-6.3	3	-3	-8%	1%	-2
CC(=O)N1CCN(C(=O)c2c(-c3ccccc3)noc2C)CC1	-2.3	1	1	-26%	6%	3
COc1ccc(OC)c(NC(=O)c2cccc(NC(=O)c3ccccc3)c2)c1	-3.1	-19	-8	-22%	?	?
Cc1ccc(CSCCNC(=O)c2ccc(N(C)S(=O)(=O)c3ccccc3)cc2)cc1	-4.6	3	-7	-21%	-2%	-6
CN1C2CCC1CC(NC(=O)c1cc(S(=O)(=O)N(C)C)c(Cl)cc1Cl)C2 (configuration not stated)	-3.2	2	-3	0%	-7%	6
CC(C)N(C(=O)c1ccc(C(=O)Nc2ccc([N+](=O)[O-])cc2)cc1)C(C)C	-1.5	10	-3	10%	-1%	-5
c1ccc(CCNc2nc(-c3ccccn3)cs2)cc1	-3.2	-1	-2	?	5%	-6
O=C1c2ccccc2OCOc2ccccc21	2.2	7	-19	8%	-5%	8
Cc1cc(-c2ccc(C)c(S(=O)(=O)NCCc3ccc(S(N)(=O)=O)cc3)c2)on1	0.2	-5	-16	-42%[inhibitor]	-11%	·
Cc1c(C)n2c(SCC(=O)NCc3ccc4c(c3)OCO4)nnc2[nH]c1=O	-0.3	5	-5	1%	1%	0
CCN1CCC2(CC1)N=C(c1ccc(F)cc1)C(=S)N2C(=O)c1ccc(C)cc1	-3.2	2	-18	-1%	6%	9
S=c1[nH]nc(C2CCCCC2)n1/N=C/C(Cl)=C\c1ccccc1	0.0	2	-24	1%	-5%	19
Cc1ccc(-n2cnc3scc(-c4cccs4)c3c2=O)cc1	-2.8	8	-3	-16%	-4%	6
CC(C)C(c1nnnn1C1CCCC1)N1CCOCC1 (configuration not stated)	-1.2	-2	0	12%	-8%	3
O=C(N/N=C/c1ccc([N+](=O)[O-])cc1)c1cc(C2CC2)[nH]n1	9.0	-2	-3	-1%	-4%	1

Already shown: an excerpt of the list.
SMILES	D2 agonist	Six1-Eya2 inh	D2 PAM	gsp ag	gsp antag	CtBP-E1A blk
COc1ccc([C@H]2CC(=O)C=C(c3cc(Br)ccc3OC)C2)cc1	-1.7	-1	-10	9%	-7%	0
CCCCc1cc(=O)oc2cc(OCC(=O)Nc3cccnc3)c(Cl)cc12	0.9	3	-3	4%	-2%	·

The list goes on.
SMILES	D2 agonist	Six1-Eya2 inh	D2 PAM	gsp ag	gsp antag	CtBP-E1A blk
Cc1ccc(NC(=S)N2CCN(S(=O)(=O)c3ccccc3)CC2)cc1C	-1.2	-9	-5	-15%	-12%	0
O=C(NCC(c1ccco1)N1CCCCC1)c1ccc2c(c1)S(=O)(=O)c1ccccc1C2=O (configuration not stated)	13	-12	-19	5%	-7%	·
Cn1nccc1NC(=O)Nc1ccc(OC(F)(F)F)cc1	5.7	7	2	-29%	3%	8
Cc1ccccc1C(=O)Nc1nnc(S(=O)(=O)N2CCCCC2)s1	0.4	-2	-4	?	5%	1
COc1ccc(C(=O)Nc2ccc(CN3CCOCC3)cc2)cc1	-3.4	-1	-10	-10%	-10%	3
CCC/S(C)=N/S(=O)(=O)c1ccc(C)cc1 (configuration not stated)	-3.7	11	-13	-24%	9%	2
Cc1cc(NCCN(C)C)n2nc(-c3cccs3)cc2n1	-0.4	-1	-11	-52%[inhibitor]	8%	-3
CSC1=NC=C(C#N)C2=NC(c3ccc(Cl)cc3)NN12 (configuration not stated)	-5.2	5	-7	·	·	-2
Cc1ccc(C(=O)N/N=C/c2ccoc2)cc1C	-0.3	-2	-14	-12%	-9%	-25
COc1ccc(-n2nc(C(=O)NCC(=O)NCCCN3CCOCC3)c3ccccc3c2=O)c(OC)c1	-3.3	0	-12	35%[15.4 µM]	4%	19
CC(C)(C)c1ccc(S(=O)(=O)N2CCC(O)(c3ccc(Cl)cc3)CC2)cc1	-1.5	-5	1	1%	-16%	·
Cc1nnsc1C(=O)Nc1ccccc1	5.9	-1	8	?	14%	3
COc1ccc(/C=N/NC(=O)c2ccccc2O)cc1Cn1nnc2ccccc21	-5.3	-23	-15	5%	-13%	·
CCCc1cc(C(=O)NNC(=S)NC2CCCCC2)cs1	-13	-16	-25	0%	5%	0
Cc1occc1C(=O)N1CCCc2ccccc21	-3.6	4	-7	-27%	8%	1
Cc1cc(C)cc(N2C(=O)CC(N(C(=O)c3ccco3)c3cc(C)cc(C)c3)C2=O)c1 (configuration not stated)	-4.1	4	-5	-25%	-11%	4
O=C(Nc1ccc2c(c1)C(=O)c1ccccc1-2)c1ccccc1	4.7	-4	0	2%	-10%	7
COc1ccc(OC)c(C2C(C#N)=C(N)N(N(C)C)C3=C2C(=O)CC(C)(C)C3)c1 (configuration not stated)	-3.7	1	-6	-12%	-6%	1
CN(C)CC/C=C1\c2ccccc2Sc2ccc(Cl)cc21	-3.1	-4	-25	·	0%	-17
CC1=CC(=O)N(c2cccc(C(F)(F)F)c2)C1c1ccc(Cl)cc1 (configuration not stated)	2.0	10	2	6%	?	11
CN(C)CCCNCCCNC(=O)c1ccccn1	-0.9	2	-4	-9%	3%	3
COc1ccccc1NC(=O)c1ccc(CSc2ccccc2)o1	-4.7	29	-12	7%	-12%	-20
Nc1c(C(=O)CSc2n[nH]c(-c3ccccc3)n2)c(=O)[nH]c(=O)n1C1CC1	?	1	10	-36%[inhibitor]	6%	5
O=C(Nc1ccc(Oc2ccccc2)cc1)C1CC1	5.8	0	-6	-20%[15.4 µM]	-3%	-9
CCOc1ccc(N(CC(=O)N2CCN(c3ccccc3OC)CC2)S(=O)(=O)c2ccc(C)cc2)cc1	-4.1	-10	-21	15%[15.4 µM]	?	-11

Looked up above:
For gsp ag, `Cc1occc1C(=O)N1CCCc2ccccc21` reads -27%
For gsp antag, `CC(C)(C)c1ccc(S(=O)(=O)N2CCC(O)(c3ccc(Cl)cc3)CC2)cc1` reads -16%

(listing goes on)
SMILES	D2 agonist	Six1-Eya2 inh	D2 PAM	gsp ag	gsp antag	CtBP-E1A blk
O=S(=O)(Nc1cccc(-c2nc3cccnc3s2)c1)c1ccc2c(c1)OCCO2	0.4	?	-4	?	-14%	?
Cc1cccc(NC(=O)CSc2nc(N)c(NC(=O)c3cccs3)c(=O)[nH]2)c1C	1.8	6	-7	0%	9%	-2
COc1ccc(NS(=O)(=O)/C=C/c2ccc(OC)c(OC)c2)cc1	3.4	-9	0	0%[15.4 µM]	1%	·
O=C(COC(=O)c1cccnc1Cl)Nc1ccc(N2CCCCC2)cc1	8.5	-7	8	-35%[inhibitor]	-11%	-10
C=CCOc1ccccc1CNc1ccc2[nH]c(=O)[nH]c2c1	-0.5	-24	5	-1%[15.4 µM]	-19%	-9
Cc1c(C(=O)C(=O)NCC2CCCO2)c2ccccc2n1C (configuration not stated)	-3.0	6	5	-15%[15.4 µM]	-1%	0
C(=N\NC1=NCCN1)/c1ccncc1	3.3	-3	-3	-1%	4%	·
CC(NC(=O)c1ccc(F)cc1)c1ccc2c(c1)CCCC2 (configuration not stated)	-0.9	2	2	5%	-15%	9
CCCCNC(=O)c1ccc2c(c1)S(=O)(=O)c1ccccc1C2=O	4.6	-10	11	?	?	-13
O=C(Nc1ccc(C(=O)N2CCOCC2)cc1)C1CC1	-0.1	8	·	·	7%	2
COc1ccc(S(=O)(=O)n2cccc2)c(OC)c1	2.1	-4	-6	10%[15.4 µM]	1%	1
COc1ccc(CCNC(=O)c2ccc(NC(=O)CC3SC(N4CCCCC4)=NC3=O)cc2)cc1OC (configuration not stated)	5.9	11	1	-5%	7%	6
COc1cccc(CNC(=O)CCC2CCCN(C3CCOCC3)C2)c1 (configuration not stated)	-1.0	6	-8	6%[15.4 µM]	11%	1
COc1ccc(NC(=O)NCc2cccnc2)c(OC)c1	2.2	3	-9	?	?	-4
Cc1nnsc1Sc1ccccc1	-4.5	6	6	-16%	8%	8
CCOc1ccc(N2C(=O)/C(=C\c3ccc(O)c(OC)c3)S(=O)(=O)C2c2cccc([N+](=O)[O-])c2)cc1 (configuration not stated)	-5.7	-1	-12	-3%	-11%	·
O=C(CN1C(=O)c2ccccc2C1=O)Nc1ccc(-c2nc3ccccc3o2)cc1	-2.1	0	-11	-1%	-6%	2
CCOc1ccc(N(C)S(=O)(=O)c2c[nH]c(C(=O)OC)c2)cc1	3.0	1	-1	?	-6%	3
CC(=O)N1c2ccc(S(=O)(=O)N3CCCC3C(=O)NCc3ccc(Cl)cc3)cc2CC1C (configuration not stated)	1.6	-1	-5	-9%	-16%	3
COc1ccc(/C=C/C(=O)Nc2ccccc2)cc1S(=O)(=O)N1CCOCC1	-2.5	-18	-3	-9%	?	1
CC(C)NC(=O)COc1ccc(Cl)cc1Cl	-0.2	5	2	7%	-6%	9

An excerpt from above in order of the D2 PAM value, high to low:
Structure	D2 agonist	Six1-Eya2 inh	D2 PAM	gsp ag	CtBP-E1A blk
CCCCNC(=O)c1ccc2c(c1)S(=O)(=O)c1ccccc1C2=O	4.6	-10	11	?	-13
CC(C)NC(=O)COc1ccc(Cl)cc1Cl	-0.2	5	2	7%	9
CC(=O)N1c2ccc(S(=O)(=O)N3CCCC3C(=O)NCc3ccc(Cl)cc3)cc2CC1C (configuration not stated)	1.6	-1	-5	-9%	3
